PMP22 txn: Cell-based coincidence reporter assay to measure PMP22 gene transcription in S16 Pmp22-F2sN cells - Primary screen; S16 Pmp22-F2sN Schwann cells (luciferase reporters placed in the Pmp22 gene), FLuc/NLuc coincidence luminescence, 24 h; Potency, µM (series often up to 57.5 µM), for the others: top-dose activity change, negative = inhibition, actives largely listed as inhibitors; 43,000 tested, 2% active; active = clear falling dose curves in both reporters; inconclusive = both reporters move, but less clearly or upward; inactive = either reporter flat; the % is the NLuc reporter signal; further: on the % scale 0 is the no-effect control and ±100 the full control effect; some results filed as inactive show a strong effect at the top dose
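S16 Schwann cells carrying FLuc/NLuc coincidence reporter in the Pmp22 3' UTR treated with compound 24 h at 37C; FLuc then NLuc luminescence read sequentially by dual-luciferase reagents.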
HTT prom inh: Primary qHTS for Identification of Small Molecule Inhibitors of Huntingtin Promoter Activity; AID 1508623, 2021; Potency, µM (top dose mostly 57.5 µM), inactives show at the top dose activity change, negative = inhibition, hits mostly inhibitors; HEK293 HTT promoter firefly luciferase reporter (activity 0% = vehicle and -100% = no light), 24 h; 48,000 tested, 0.93% active; active means well fitted inhibition curve with a large enough effect; inconclusive means small, poorly fitted or top-dose-only effect; inactive means no such curve, though single readings can be large or run the other way; further: nearly all actives have a fitted effect of over 50% in size
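HEK293 Fluc reporter, 2,500 cells/well, 24 h pre-culture; cpds up to 57.5 uM final, 24 h 37 degrees C; Dual-Glo, 10 min RT; normalized vehicle = 0%, zero RLU = -100%.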
* = called active by the depositor; ? = inconclusive; nt = no result given; & = joins results of further samples; [ ] = remark or other dose. Potency means the concentration at half of the fitted maximal effect. Rows were taken by chance; overall some 2.7% were active at least once.

Compound | HTT prom inh | PMP22 txn
CCC(C(=O)NCc1cc(OC)ccc1OC)n1nc(C)c2sc3ccccc3c2c1=O (stereo unspecified) | -13% | -3%
CCn1c2ccccc2c2cc(NC(=O)COc3cc(C)c(Cl)c(C)c3)ccc21 | -6% | -13%
Cc1ccc(Cc2cnc(NC(=O)c3ccc4c(c3)CC(c3ccccc3)OC4=O)s2)cc1 (stereo unspecified) | ? | -16%
COc1ccc(NC(=O)c2ccc3c(SCC(=O)O)c4c(nc3c2)CCC4)c(OC)c1 | -6% | -18%
Cc1ccc(-c2noc(CN(C3CCCCC3)S(=O)(=O)c3ccc(Cl)cc3)n2)cc1 | -2% | -35%
Cc1ccc(NC(=O)Cn2c(=O)n(Cc3ccc4c(c3)OCO4)c(=O)c3ccccc32)cc1 | -17% | ?
Cc1cc(C)c(S(=O)(=O)NCC(c2ccc(N(C)C)cc2)N2CCOCC2)c(C)c1 (stereo unspecified) | -13% | -2%
Cc1cccc(N(C)S(=O)(=O)c2ccc3c(c2)NC(=O)CC(=O)N3)c1 | -9% | -3%
Cc1ccccc1NC(=O)CN(C)S(=O)(=O)c1cccc2nsnc12 | 3% | -13%
Cc1cc(OC(C)C(=O)N(Cc2ccc(N(C)C)cc2)Cc2ccco2)ccc1Cl (stereo unspecified) | ? | ?
COc1cccc(Oc2nc3c(c(=O)n(Cc4ccccc4Cl)c(=O)n3C)n2C)c1 | -18% | -65%
COc1ccc(CCNc2nc(-c3ccccc3OC)cc(C(F)(F)F)n2)cc1OC | ? | -54%
CCOc1ccc(CCn2c3c(c(=O)[nH]c2=O)C(NC(=O)c2ccccc2)(C(F)(F)F)C(=O)N3)cc1OCC (stereo unspecified) | 2% | -22%
CCCc1cc(=O)[nH]c2nnc(SCC(=O)Nc3ccc(OC)cc3)n12 | -15% | 10%
CCOc1ccc(NC(=O)c2oc3ccccc3c2NC(=O)C(C)Oc2ccccc2)cc1 (stereo unspecified) | -26% | 0%
Cc1ccc2oc(=O)c3cnn(CC(=O)N4CCN(c5cccc(C(F)(F)F)c5)CC4)c3c2c1 | 5% | -7%
CCC(C=C[C@@H]1OC(=O)C=C[C@H]1C)=C[C@H](C)CC=CC(C)=C[C@@H](C)C(=O)[C@@H](C)[C@H](O)[C@@H](C)CC(C)=CC(=O)O | ? | nt
COc1ccc(C(=O)c2cn(CC(=O)Nc3cc(OC)cc(OC)c3)c3ccc(OC)cc3c2=O)cc1 | -23% | 4%
O=C(CCS(=O)(=O)c1nc(-c2ccc3c(c2)OCO3)cc(C(F)(F)F)n1)Nc1ccc(Br)cc1 | ? | ?
Cc1ccc(-c2cn3cccnc3n2)cc1NC(=O)C(C)(C)Oc1ccc(Cl)cc1 | ? | -55%
O=C(NC(Cc1cc(=O)[nH]c2ccccc12)C(=O)O)c1ccc(Cl)cc1 (stereo unspecified) | 1%&6% | nt
CCc1cccc(C)c1NS(=O)(=O)c1ccc(-c2cc(C)no2)s1 | ? | -20%
COc1ccccc1C(=O)Nc1c(C(=O)N2CCN(c3ccc(F)cc3)CC2)oc2ccccc12 | -12% | -18%
COc1ccc(NC(=O)C(=O)NCC2(c3ccc(OC)c(OC)c3)CCCC2)cc1 | -20% | -1%
CCOC(=O)c1c(S(=O)(=O)N2CCN(c3ccccc3OC)CC2)c(C)n(C)c1C | -19%[11.5 µM] | 1%
Cc1ccc(Cl)cc1N(C)C(=O)c1noc2c1CCCCC2 | -20% | -12%
COC(=O)c1c(SCC(=O)Nc2cc(F)ccc2F)[nH]c2ccc(C)cc2c1=O | -2% | -15%
COC(=O)c1cc(NC(=O)Cn2nc(-c3ccc(C)c(C)c3)ccc2=O)cc(C(=O)OC)c1 | -9% | -10%
CCOC(=O)c1cc2c(=O)n3ccccc3nc2n(C(C)C)c1=NC(=O)c1cc2ccccc2o1 | -9% | -29%
CCC(=O)C1=C(c2ccc(OC)c(OC)c2)N(C(=O)CC)n2c(CC)nnc2S1 | -20% | ?

The list goes on (two carried over from the part before).
Compound | HTT prom inh | PMP22 txn
CCOC(=O)c1cc2c(=O)n3ccccc3nc2n(C(C)C)c1=NC(=O)c1cc2ccccc2o1 | -9% | -29%
CCC(=O)C1=C(c2ccc(OC)c(OC)c2)N(C(=O)CC)n2c(CC)nnc2S1 | -20% | ?
Cc1ccc(CNC(=O)C2CCCN(S(=O)(=O)c3cccc4nsnc34)C2)cc1 (stereo unspecified) | 6% | -16%
Cc1ccccc1Cn1c(CCCNC(=O)C2CCCCC2)nc2ccccc21 | -28% | ?
Cc1c(Cl)ccc2sc(N3CCN(C(=O)c4ccco4)CC3)nc12 | 21% | ?
O=c1c2oc3ccccc3c2n(Cc2cccc(C(F)(F)F)c2)c(=O)n1Cc1ccc2c(c1)OCO2 | -14% | -24%
Cc1c(CN2CCN(C(=O)C(C)C)CC2)sc2c(N3CCOCC3)nc(-c3cnc(N)nc3)nc12 | ? | nt
O=C(CCn1c(=O)c2cccn2c2cccnc21)NCc1ccccc1F | 7% | -26%
Cc1cc(OCCCn2c(CCNC(=O)C3CCCCC3)nc3ccccc32)ccc1Cl | ? | ?
Cc1ccc(C)c(S(=O)(=O)c2nnn3c2nc(NCc2ccc4c(c2)OCO4)c2sccc23)c1 | -2% | ?
CCOc1ccc(C(=O)Nc2nc(-c3ccc(Br)cc3)ns2)cc1 | -10% | -3%
Cc1ccc(NC(=O)C(C)Sc2nc(=O)cc(N)n2-c2ccccc2)cc1 (stereo unspecified) | -17% | 52%
COc1ccc(NS(=O)(=O)c2ccc3[nH]c4c(c3c2)CCCC4)cc1OC | 20µM* | 14µM*
COc1ccc(C(=O)n2nc(N)c3cc4ccc(C)cc4nc32)cc1OC | 16% | -59%
Cc1c(C(=O)N2CCC(C)CC2)c(S(=O)(=O)NCc2ccc(Cl)cc2)c(C)n1C | -23% | -2%
Cc1ccccc1CN1c2ccccc2-c2nc(SCC(=O)c3ccc(Cl)cc3)ncc2S1(=O)=O | -14% | 5%
CCS(=O)(=O)c1nc2ccccc2n1CC(=O)Nc1ccccc1C(=O)OC | 36%[activator][11.5 µM] | -40%
CCCCN(CCCC)CC(O)Cn1cc(/C=C/C(=O)c2ccccc2)c2ccccc21 (stereo unspecified) | -27% | ?
Cc1ccc2[nH]cc(C(c3ccccc3)c3ccc(Cl)s3)c2c1 (stereo unspecified) | ? | -30%
CC1=C(C(=O)Nc2ccc(C)cc2C)C(c2ccccc2)n2ncc(C(=O)Nc3ccccc3)c2N1 (stereo unspecified) | -33% | -19%
Cc1ccc(NC(=O)/C(C#N)=C/c2ccccc2Cl)cc1C | 2% | ?
COc1ccc(-c2noc(-c3ccc(N4CCN(C)CC4)c([N+](=O)[O-])c3)n2)cc1 | 2% | -19%
CCCc1nnc(NC(=O)c2nc(S(=O)(=O)Cc3ccc(C)cc3)ncc2Cl)s1 | -31% | ?
COc1ccc(NC(=O)CN2C(=O)COc3ccc(S(=O)(=O)N4CCCCC4)cc32)cc1OC | -11% | 16%
Cc1nn(C(C)C(=O)NC2CCC(C)CC2)c(=O)c2cc3sccc3n12 (stereo unspecified) | 0% | 1%
COc1ccc(CCNc2nc3c(-c4cccc(F)c4)nnn3c3ccccc23)cc1OC | 13% | -27%
CCOc1ccc(S(=O)(=O)NCCc2c(C)[nH]c3c(Cl)cccc23)cc1C | -19% | ?
COc1cccc(NC(=O)N(Cc2cn(C)c3ccccc23)C2CCCCCC2)c1 | -10% | 11µM*
COc1ccc(S(=O)(=O)c2c(Nc3ccc(C)cc3C)sc(C(=O)c3ccc(F)cc3)c2N)cc1 | ? | -9%
CCOC(=O)COc1ccc(CC)cc1C(=O)c1ccn2nc(-c3ccc(Cl)cc3)cc2n1 | -6% | ?
CCOC(=O)Cn1c(=O)n(C2CCCCC2)c2nc(-c3c(F)cccc3Cl)nc(C(N)=O)c21 | -40% | ?
COc1ccc2oc(=O)c(-c3nc(-c4ccc(C)c(C)c4)cs3)cc2c1 | 0% | 5%
Fc1ccc(-n2ncc3c(NCCCc4ccccc4)ncnc32)cc1 | 27% | ?
Cc1ccc(CN(C(=O)COc2ccc([N+](=O)[O-])cc2)c2ccccn2)o1 | -28% | -6%
CCN(c1ncnc2c1cnn2-c1cccc(Cl)c1)C1CCCCC1 | ? | 13%
CC1=C(C(=O)OCC(C)C)C(c2ccc(OCc3ccccc3)cc2)N2C(=O)CCSC2=N1 (stereo unspecified) | ? | ?
CCC(CC)C(=O)Nc1nnc(S(=O)(=O)N2CCc3ccccc32)s1 | -10% | 1%
CCC(CC)C(=O)Nc1cccc(-c2nc3cccnc3s2)c1 | -6% | -13%
CCC1=C(c2ccc(C)cc2)S(=O)(=O)N=C1N1CCC(C(=O)NCc2ccc(N(C)C)cc2)CC1 | ? | 5%
CCN(c1ccccc1)c1cc(NC)[n+](C)c(C)n1 | -2% | nt
O=C1c2c(O)cc(O)cc2OC(c2ccc(O)c(O)c2)C1O (stereo unspecified) | -18% | nt
Cc1ccc(NC(=O)N2CCc3c(sc4c3CCCC4)C2c2ccccc2)cc1F (stereo unspecified) | -19% | -33%
Cc1cc(C)c(S(=O)(=O)NCc2csc(-c3ccccc3)n2)c(C)c1 | ? | -17%
CCCSc1nnc2c(n1)OC(c1sccc1C)Nc1ccccc1-2 (stereo unspecified) | 49%[activator] | -1%
CCc1ccc(NC(=O)CSc2nnc3[nH]c(=O)cc(-c4ccccc4)n23)cc1 | 21% | -18%
CCOC(=O)c1cccc(NC(=O)CCc2c(C)nc3cc(-c4ccc(Cl)cc4)nn3c2C)c1 | ? | -25%
COC(=O)c1ccc(-n2c(/C=C/c3cc(OC)c(OC)c(OC)c3)nc3cc(Cl)ccc3c2=O)cc1 | -28% | ?
COc1ccc(NCc2cccn2-c2nnc(N3CCC(C)CC3)s2)c(OC)c1 | ? | ?
COc1ccccc1CNC(=O)c1cc(Sc2cccc(Cl)c2)nc2ccccc12 | ? | ?
O=C(CCNS(=O)(=O)c1ccc2c(c1)CCN2C(=O)C1CC1)N1CCN(c2ccc(F)cc2)CC1 | ? | ?
CCc1ccc(-n2c(Cc3ccccc3)nnc2SCc2nc(-c3cccs3)no2)cc1 | -17% | -27%
CC1(C)O[C@H]2[C@@H](O1)[C@@H](C(=O)Nc1ccccc1O)O[C@@H]1OC(C)(C)O[C@@H]12 | -14% | 18%

3 structures already listed, sorted by number of heavy atoms, highest first.
Compound | HTT prom inh | PMP22 txn
CCOC(=O)c1cccc(NC(=O)CCc2c(C)nc3cc(-c4ccc(Cl)cc4)nn3c2C)c1 | ? | -25%
CCc1ccc(-n2c(Cc3ccccc3)nnc2SCc2nc(-c3cccs3)no2)cc1 | -17% | -27%
COc1ccccc1CNC(=O)c1cc(Sc2cccc(Cl)c2)nc2ccccc12 | ? | ?

Going on with the list:
Compound | HTT prom inh | PMP22 txn
O=C(NCCc1ccccc1Cl)c1ccc2c(=O)n(-c3ccccc3)c(=O)[nH]c2c1 | ? | ?
CCOc1ccc(NC(=O)Cn2ccn3nc(-c4ccc(OC)c(OC)c4)cc3c2=O)cc1 | 12% | -21%
CCC(=O)N1CCc2cc(S(=O)(=O)CCC(=O)Nc3ccc(Cl)c(C(F)(F)F)c3)ccc21 | ? | 11µM*
COc1ccc(-n2c(=O)c3c(c4cc(OC)ccc4n3C)n(CCC(C)C)c2=O)cc1 | -13% | 2.1µM*
CCOc1cccc(CC(=O)Nc2ccc3nc(N4CCCCC4)cc(C)c3c2)c1OCC | ? | ?
CCc1ccc(NC(=O)CCS(=O)(=O)c2ccc3c(c2)n(C)c(=O)c(=O)n3C)cc1 | -15% | -2%
CSc1ncc(Cl)c(C(=O)Nc2c(C(=O)Nc3cccc(Cl)c3)oc3ccccc23)n1 | -3% | -4%
O=C(c1cc(O)c(O)c(O)c1)c1ccc(O)c(O)c1O | 0% | nt
Cc1ccc(NC(=O)C2CCC(CNS(=O)(=O)c3cccc4nsnc34)CC2)c(Cl)c1 (stereo unspecified) | ? | -31%
O=C(OCc1ccccc1)c1ccc(O)cc1 | 39%[activator] | nt
CCOC(=O)c1ccccc1NC(=O)c1cc2ccc3cccnc3c2[nH]1 | 11% | ?
CCc1ccc(NC(=O)c2sc3nc(C)c(Cl)c(C)c3c2N)cc1 | 70%[activator] | ?
CN(C)c1ccc(CN(Cc2ccco2)C(=O)c2ccc(F)cc2)cc1 | -29% | ?
CCCNC(=O)c1ccccc1NC(=O)c1nsc2ccccc12 | 22% | ?
CCOc1ccc(NC(C)=O)cc1 | -5% | nt
COc1cccc(NC(=O)CSc2nc3cc(OC)c(OC)cc3c3nc(-c4ccccc4)nn23)c1 | 4% | -15%
COc1ccc(CCNC(=O)c2ccc3c(Cl)c4c(nc3c2)CCCC4)c(OC)c1 | -26% | ?
O=C1NC(c2ccccc2)(c2ccccc2)C(=O)N1COP(=O)(O)O | 8% | nt
CN(C)c1cccc(C(=O)Nc2ccc(-c3nc4ccccc4s3)cc2)c1 | -21% | ?
COc1cccc(OCc2nc3ccccc3n2CCOc2ccc(C)cc2)c1 | -20% | -21%

Screening results from PubChem.
